# NPYLR7 ag: mosquito NPYLR7 agonism; HEK293T NPYLR7/Galpha15, GCaMP6s calcium fluorescence; activation, % at 10 µM; 270,000 tested, 0.15% active; in the data active = activation above about 40%;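 note: 0% = vehicle and 100% = reference agonist at the receptor; some compounds past the cut are filed as inactive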
# NPYLR7 ag max-min: also measured in NPYLR7 ag; calls as there; activation, %; measured here: Max-Min RFU normalised activation; some inactives read as strong as hits;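 span of the calcium signal over five minutes; 0% = vehicle and 100% = native peptide agonist; compound fluorescence can raise it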
# * marks the source's active call; other numbers are inactive results; & = joins results of further samples. A portion of the library. The share of hits here may be higher or lower than overall.
SMILES,NPYLR7 ag,NPYLR7 ag max-min
CC1(C(=O)NS(=O)(=O)c2ccccc2)CCN1C(=O)CC1CCCC1 (stereo not drawn),17,17
COc1ccc(Nc2cc(-c3ccc(CC(C)C)cc3)ncn2)cc1OC,-9,-10
Cc1cc(C)n(-c2n[nH]c(C)c2[N+](=O)[O-])n1,18,18
COCc1nc(N2CCC(CCO)CC2)c2cnn(C)c2n1,5,5
Cc1cccc(CNCC2(O)CCCN(Cc3ccc(C(C)C)cc3)C2=O)n1 (stereo not drawn),-8,-5
COc1cc(OC)c2c(=O)c(-c3ccccc3)coc2c1,-16,-23
CCOC(=O)c1ccc(-n2c(C)cc(/C=C3/SC(=Nc4ccccc4)NC3=O)c2C)cc1,-4,-8
Cc1nc(C(C)C)sc1C(=O)NCc1cccc(-c2nn[nH]n2)c1,5,1
CCOC(=O)c1ccc(Nc2nnc(Cc3ccccc3)c(=O)[nH]2)cc1,-1,-1
C=CCc1cc(C)cc(C)c1OCCNCC1CCCO1 (stereo not drawn),-10,-17
COc1ccc(C(=O)NC2CCCCC2C)c(OC)c1OC (stereo not drawn),-7,-9
COc1ccc(-c2ccc(NC3CC3)nn2)c(C)c1,0,0
COc1ccccc1CCNC(=O)C(=O)NCC1OCCCN1S(=O)(=O)c1cccs1 (stereo not drawn),-6,-5
CCCn1c(=O)n(CCC(=O)Nc2cccc(NC(=O)Nc3ccccc3)c2)c2ccccc21,-1,-6
Cc1cccc(CSc2nnc(CNC(=O)C(Cl)c3ccccc3)n2-c2ccc(Cl)cc2Cl)c1 (stereo not drawn),15,16
c1ccc(Oc2ccc(-c3nc(N4CCCC4)c4ccccc4n3)cc2)cc1,3,6
COc1cccc(C2c3[nH]c4ccccc4c3CCN2Cc2cccs2)c1OC (stereo not drawn),-1,-4
COCCNC(=O)C(NC(=O)C1CCCC1)C1CCN(C(=O)c2cccc(OC)c2)CC1 (stereo not drawn),-2,-2
CC(=O)Nc1cccc(NC(=O)CSc2nnc(C(C)C)c3cnn(-c4ccc(C)c(C)c4)c23)c1,-13,-14
COc1ccc(C(=O)N2CCC(n3c(=O)oc4cc(C)ccc43)CC2)c(OC)c1,29,34
CNc1ncc(CN(C)Cc2nc(-c3ccco3)oc2C)cn1,-1,-5
CCC(C)N(CC(=O)N(Cc1ccc(F)cc1)Cc1sccc1C)C(=O)c1ccc(-c2ccccc2)cc1 (stereo not drawn),-3,6
CN(Cc1ccccc1)C1CCCN(Cc2ccc(C#CC(C)(C)O)cc2)C1 (stereo not drawn),10,-3
COc1ccc(CCN(C)c2cc(Cl)nc(SCc3cccc(C(=O)NCCC(c4ccccc4)c4ccccc4)c3)n2)cc1OC,13,20
COc1ccc2c(c1)CN(CC(=O)NCc1cc(OC)c(OC)cc1OC)CC2,7,6
COc1ccc(Nc2nc(NCCCOC(C)C)nc3c2cnn3-c2ccccc2)cc1,1,0
CCN1CCOC(C(=O)N(C2CC2)C(C)c2ccccn2)C1 (stereo not drawn),0,0
CC1(C)OCC(NC(=O)Nc2cccc3ccccc23)C(c2ccccc2)O1 (stereo not drawn),16,14
O=C(CN1C(=O)CC(c2ccco2)Sc2ccccc21)NC1CCCCC1 (stereo not drawn),-4,-7
CCOC(=O)c1cc(-c2cccc(NC(=O)c3ncoc3-c3ccc(OC)cc3)c2)n(-c2cccc(F)c2)n1,8,4
CC(NC(=O)CC12CC3CC(CC(C3)C1)C2)C(=O)O (stereo not drawn),-1,-2
Clc1ccc2nc(N/N=C\c3ccc(Cl)o3)nc(-c3ccccc3)c2c1,7,-1
COCCN1CCC(C(=O)NCc2nc(C)c3c(n2)CCCC3)C1 (stereo not drawn),-7,-10
O=C(NCc1ccco1)c1cc(-c2cccs2)n(C2CCS(=O)(=O)C2)n1 (stereo not drawn),-1,-2
CC(C)NC(=O)CNCc1ccc(S(C)=O)cc1 (stereo not drawn),6,5
CCc1nc2ccc(C(=O)NCCc3ccccn3)cn2c1N(CC)Cc1ccc(OC)c(OC)c1,16,11
O=C(ON=C1Sc2ccccc2C1=O)c1ccccc1,6,5
CC1CCN(Cc2cc(=O)[nH]c(N3CCN(C(=O)CC(C)CC(C)(C)C)CC3)n2)CC1 (stereo not drawn),1,-3
O=C1c2ccccc2C2=Nc3ccccc3SC12O (stereo not drawn),11&5,11&0
O=C(NCCCn1nc(-c2ccncc2)ccc1=O)c1ccc(-c2ccccc2)cc1,16,14
CCc1nc2ccc(C(=O)NCCOc3ccc(OC)cc3)cn2c1N(C)Cc1ccc(Cl)cc1,-4,-9
Cc1ccc(-n2ncc3c(C)nn(CC(=O)N4CCCc5ccccc54)c(=O)c32)c(C)c1,-5,-6
COCCOc1cccn2c(N(C)Cc3cccs3)c(C)nc12,21,18
O=C(CNCCNC(=O)c1ccncc1)Nc1ccc(Cl)cc1F,14,6
COc1ccc(OC)c(CC(=O)N2CC(=O)N3CCc4cc(OC)c(OC)cc4C3C2)c1 (stereo not drawn),3,13
O=c1[nH]c2ccccc2n1C1CCN(CCOc2ccccc2)CC1,-11,-24
CCCNc1cc(C)nc2cc(-c3ccc(OC)c(OC)c3)nn12,2,12
O=C(O)CCC(=O)N1N=C(c2cccs2)CC1c1cccc2nccnc12 (stereo not drawn),-6,-7
Cc1cccc(CNCc2c(-c3ccccc3)noc2N(C)C(C)C)c1,-1,10
COC(=O)C1C(=N)Oc2c(oc(CO)cc2=O)C1c1cccc(Cl)c1 (stereo not drawn),-3,-3
CS(=O)(=O)c1c(F)cc(NC(=O)c2cc(Cl)ccn2)cc1F,-3,-3
COc1ccc(Br)cc1S(=O)(=O)Oc1ccc2ccccc2c1,9,10
COc1ccc(OC)c(NC(=O)c2c(-c3ccccc3)noc2C)c1,2,1
CC(=O)c1sc2nc(CN(C)Cc3ccccc3)[nH]c(=O)c2c1C,13,18
CNCCc1cnc(CCC(c2ccccc2)c2ccccc2)[nH]1,0,-26
Cc1ccc(F)cc1C(=O)Nc1ccc(C#N)c(C#N)c1,3,29
CCOC(=O)C1CCCN(CC(=O)N2N=C(c3ccccc3F)CC2c2cc(OC)ccc2OC)C1 (stereo not drawn),-13,-5
Cc1cc(C)nc(N=Cc2nc(-c3ccccc3F)oc2O)c1,-6,-10
C=CCCC(O)CN(CCCOC)Cc1cccs1 (stereo not drawn),-8,5
COc1ccc(Cn2c(C3CC(=O)N(C)C3)n[nH]c2=O)cc1 (stereo not drawn),27,12

# Three entries picked at random from the list so far, as already listed:
SMILES,NPYLR7 ag,NPYLR7 ag max-min
Cc1cc(C)nc(N=Cc2nc(-c3ccccc3F)oc2O)c1,-6,-10
Cc1ccc(F)cc1C(=O)Nc1ccc(C#N)c(C#N)c1,3,29
COCCOc1cccn2c(N(C)Cc3cccs3)c(C)nc12,21,18

# (listing goes on)
SMILES,NPYLR7 ag,NPYLR7 ag max-min
CCCn1nnnc1CNc1cc(F)c(F)cc1NC(C)=O,-2,-3
O=C(c1cc(C(F)(F)F)cc(C(F)(F)F)c1)N1CCN(c2nccc(-c3ccco3)n2)CC1,4,0
O=C(OCc1cc(-c2cc3ccccc3o2)on1)c1cccs1,-4,-3
O=C(COc1ccc(Cl)cc1Br)c1c[nH]c(C(=O)N2CCCC2)c1,6,3
COc1ccccc1-c1nc(COC(=O)c2nnn(-c3ccc(C)cc3)c2C)c(C)o1,2,0
COc1ccc(-c2nn(-c3ccccc3)cc2CNCc2cc(C(C)C)no2)c(F)c1,5,-6
CCn1nnc2c(NC(C)COC)ncnc21 (stereo not drawn),15,12
COc1ccc(C(NC(=O)C2CCN(CCc3c[nH]c4ccccc34)CC2)c2ccccc2C)cn1 (stereo not drawn),3,-4
N#Cc1c(N)nc(SCC(=O)c2ccc(Br)cc2)c(C#N)c1-c1ccccc1,6,6
COC(=O)CCNC(=O)CC(c1ccccc1)c1ccccc1F (stereo not drawn),2,-3
CC1CN(c2cc(Oc3ccc(F)cc3Cl)ncn2)CCN1C(=O)C(C)(C)CCl (stereo not drawn),4,9
COc1cccc(F)c1-c1cnc(-n2cnnc2)c(C)c1,-1,7
Cc1csc(CC2=NC(=O)C(CC(=O)Nc3ccc4ccccc4c3)S2)n1 (stereo not drawn),1,-1
COc1ccc2nc3sc(C(=O)O)cc3cc2c1,1,-1
COCCN(CCOC)Cn1nc(Nc2ccccc2F)sc1=S,3,0
Cc1cc(C(=O)N/N=C\c2ccc(C)o2)c2ccccc2n1,13,18
COCCOCC(=O)Nc1ccc(F)cc1-c1ccc(Cl)cc1,6,13
CCC(c1cccnc1)N(C)CC1CCC(N)CC1 (stereo not drawn),3,2
CNc1nnc(SCC(=O)c2ccc(Cl)cc2)s1,-5,-6
COc1ccc2nc(-c3ccc(NS(=O)(=O)c4cc(Cl)ccc4Cl)cc3)cn2n1,-10,-13

# Reprinted from the part before: 7 entries; new compounds follow.
SMILES,NPYLR7 ag,NPYLR7 ag max-min
COc1ccc2nc3sc(C(=O)O)cc3cc2c1,1,-1
COCCN(CCOC)Cn1nc(Nc2ccccc2F)sc1=S,3,0
Cc1cc(C(=O)N/N=C\c2ccc(C)o2)c2ccccc2n1,13,18
COCCOCC(=O)Nc1ccc(F)cc1-c1ccc(Cl)cc1,6,13
CCC(c1cccnc1)N(C)CC1CCC(N)CC1 (stereo not drawn),3,2
CNc1nnc(SCC(=O)c2ccc(Cl)cc2)s1,-5,-6
COc1ccc2nc(-c3ccc(NS(=O)(=O)c4cc(Cl)ccc4Cl)cc3)cn2n1,-10,-13
Cc1cccc(N=c2oc3ccc(Cl)cc3cc2C(N)=O)c1,2,-3
N#CC(=Cc1ccco1)c1nc(-c2ccc3[nH]c(=O)[nH]c3c2)cs1,13,5
Cc1ccc(S(=O)(=O)N2CC(Cc3c(F)cccc3Cl)C2)cc1,17,14
O=C(CSCc1csc(-c2ccco2)n1)N1CCc2ccccc21,7,3
N#Cc1ccc(NC2CCN(C(=O)C3CC3)CC2)nc1,3,1
COc1ccc(S(=O)(=O)N2CCOCC2)cc1NC(=O)C1(c2cccc(F)c2)CCC1,1,1
CSc1ncc(C(=O)Nc2ccc(N(C)C)nc2)n1-c1ccccc1,9,9
O=c1[nH]c(-c2ccc(Cl)cc2)nnc1-c1ccccc1,1,-1
COc1ccc(NS(=O)(=O)/C=C/c2ccccc2)cn1,1,-2
O=C(O)c1ccc(Cl)cc1N=Cc1nc(-c2ccccc2)oc1O,13,13
COC(=O)c1nn(Cc2nc(-c3sccc3C)oc2C)c2c1CCC2,9,2
Cc1ccc(C(O)c2ncc(-c3ccccc3)[nH]2)c(C)c1 (stereo not drawn),4,4
CCOc1ccc(-c2cc(C(=O)N/N=C\c3ccc(O)cc3)[nH]n2)cc1OC,-2,-4
CCC(C)N1CCC(=O)NC1=O (stereo not drawn),21,9
COc1ccc2[nH]c3c(c2c1)CCN(Cc1ccccn1)C3,3,5
Cc1ccc(Cc2nc(N3CCNCC3)c3c(C)nn(-c4ccccc4)c3n2)cc1,-16,-17
CCCc1ccc(OCc2ccc(C(=O)N/N=C\c3ccncc3)o2)c(OC)c1,-2,-4
Cn1nc(-c2ccc(Cl)cc2)cc1NC(=O)Cn1cnc([N+](=O)[O-])n1,1,1
CCCS(=O)(=O)N1CCN(C2CCCC2)CC1,13,5
COc1cccc(C2CC(c3cccs3)=NN2C(=O)CN2CCCC2)c1O (stereo not drawn),-6,-7

# Single records, as listed above. Values in the order: NPYLR7 ag	NPYLR7 ag max-min
# `CC1(C(=O)NS(=O)(=O)c2ccccc2)CCN1C(=O)CC1CCCC1` (stereo not drawn) in the list: 17	17
# `CCC(c1cccnc1)N(C)CC1CCC(N)CC1` (stereo not drawn) in the list: 3	2
# `COc1ccc(S(=O)(=O)N2CCOCC2)cc1NC(=O)C1(c2cccc(F)c2)CCC1` in the list: 1	1

# Next part:
SMILES,NPYLR7 ag,NPYLR7 ag max-min
CC(c1ccccc1)N1CCN(C(=O)Nc2ccc(F)c(F)c2F)CC1 (stereo not drawn),-2,-1
CCOC(=O)C1CCCN(C(=O)c2ccc(CSc3nc(-c4ccccc4)cc(N4CCCC4)n3)o2)C1 (stereo not drawn),9,5
CCSc1nnc2ccc(-c3ccc(Br)cc3)nn12,-11,-9
CCC(c1ccc(O)cc1)C(CC)c1ccc(O)cc1 (stereo not drawn),2&-1,-1&-3
O=C(NCCc1ccccc1)N1CCC(c2nnc(C3CC3)s2)CC1,-6,-5
CCNc1nc2c(c(=O)n(C)c(=O)n2C)n1CCCc1ccccc1,0,-2
Cc1ccc(C(NC(=O)C2CCN(CCOc3ccccc3)CC2)c2ccccn2)cc1 (stereo not drawn),0,-2
Cc1ccccc1-n1ncc2c(C3CC3)nn(CC(=O)Nc3ccc(F)cc3)c(=O)c21,6,1
O=C(NCC1COc2ccccc2O1)C1Cc2cc(Cl)ccc2O1 (stereo not drawn),5,5
COc1ccc(CC2CC(=O)N(NC(=O)Cc3c[nH]c4ccccc34)C2=O)cc1 (stereo not drawn),-9,-14
CCn1c(C)c(C(=O)CN(CCN2CCOCC2)C(=O)c2ccc(Cl)c(Cl)c2)c(C)c1C(=O)OC,15,30
O=c1c(Cl)c(N2CCN(c3nnnn3-c3ccccc3)CC2)cnn1-c1ccccc1,9,7
Cc1cc(O)c(CN2CCN(CCO)CC2)c2c1C(=O)/C(=C/c1cccnc1)O2,23,22
CC(=O)OCC(=O)N1CCN(c2c(Cc3ccccc3)c(C)nc3ncnn23)CC1,28,20
c1cc2[nH]nc(-c3ccsc3)c2c(-c2ccoc2)n1,8,4
CCc1nc(-c2c(-c3ccccc3)ncn2CCCO)c(C)[nH]1,3,2
O=C(NCCc1cccnc1)c1cn(Cc2ccccc2F)nn1,2,-3
CNc1cc(-c2ccc(C(C)=O)cc2)ncn1,0,1
COc1ccc(CN2CCN(C3CCCC3)CC2CCO)cc1C (stereo not drawn),-9,-10
CCCn1nc(C)c(C(=O)NC(C)CCN2CCOCC2)c1C (stereo not drawn),5,890

# Already shown: an excerpt of the list.
SMILES,NPYLR7 ag,NPYLR7 ag max-min
COc1ccc(CN2CCN(C3CCCC3)CC2CCO)cc1C (stereo not drawn),-9,-10
CCCn1nc(C)c(C(=O)NC(C)CCN2CCOCC2)c1C (stereo not drawn),5,890

# Screens (PubChem BioAssay)
